Bioassay records deposited in PubChem by National Center for Advancing Translational Sciences (NCATS).
MARV entry inh = qHTS for Inhibitors of binding or entry into cells for Marburg Virus; Marburg virus pseudotype entry/binding inhibition, cell-based; control for the full effect not named in the record; many of its hits are not listed in these tables; hit rate 6.5% among 18,000; Potency, µM (doses to about 49.2 µM), for inactives: top-dose activity change, negative = inhibition, actives largely listed as inhibitors; active means well fitted inhibition curve with a large enough effect; inconclusive means small, poorly fitted or top-dose-only effect; inactive means no such curve, though single readings can be large or run the other way; tested in HEK293 cells; further: luciferase read-out
LASV entry inh = qHTS for Inhibitors of binding or entry into cells for Lassa Virus; hit rate 4.1% among 18,000; Potency, µM (top dose mostly 49.2 µM), for inactives: top-dose activity change, negative = inhibition, hits mostly inhibitors; Lassa virus pseudotyped entry inhibition, cell-based qHTS; control for the full effect not named in the record; many of its hits are not listed in these tables; active = well fitted inhibition curve with a large enough effect; inconclusive = small, poorly fitted or top-dose-only effect; inactive = no such curve, though single readings can be large or run the other way; tested in HEK293 cells; further: luciferase read-out
The depositor's hits bear a star; ? = inconclusive; / = no result given; & = joins results of further samples; [ ] = dose if it differs, or a comment. On the % scale 0 is the no-effect control and ±100 the full control effect; potency means the concentration at half of the fitted maximal effect. Only part of the results is shown; rates above refer to the full screens.

Values run as follows: MARV entry inh	LASV entry inh
CCCCCC[C@H]1C(=O)O[C@H](C)[C@H](NC(=O)c2cccc(NC=O)c2O)C(=O)O[C@@H](C)[C@@H]1OC(=O)CC(C)C
    ?	?
CC(C)C[C@@H](CC(=O)N[C@H](CC(=O)N[C@@H]1CCCC[C@H]1C(=O)N[C@H](CC(=O)N[C@@H](CCC(=O)O)CC(=O)O)CC(C)C)C(C)C)NC(=O)[C@@H]1CCCC[C@H]1N
    3%	6%
Cc1c(C(=O)N2CC3CCC2C3)sc2ncnc(NCc3ccco3)c12 (stereo unspecified)
    10%	-7%
CCOC(=O)[C@@]1([C@@H](NC(=O)OC)c2ccccc2)CCCC1=O
    12%[8.59 µM]	-2%[8.59 µM]
CC1(C)CC(=O)C2=C(C1)O[C@@]1(c3ccsc3)Cc3cc(C#N)ccc3[C@H]2O1
    ?	9%[8.59 µM]
NS(=O)(=O)c1nn2cc(-c3ccccc3)nc2s1
    ?	-20%
COC(=O)c1ccc(C(=O)NCC2Cc3cccc(-c4ccc(C(=O)OC)cn4)c3O2)cc1 (stereo unspecified)
    -2%	-3%
COc1ccc2c(c1)C(=O)[C@@H](OC(=O)N[C@H](C)C1CCCCC1)[C@H](c1ccc(OC)c(Br)c1)O2
    -1%	6%
COC(=O)[C@@H]1CCCN1Cc1ccc2c(c1)CN(Cc1cccn1-c1ccc(Cl)cn1)CCO2
    -16%	-6%
CCN1C(N(C)CCOC)=NC(c2cccc(F)c2)C(C(=O)OC)=C1C (stereo unspecified)
    -24%[8.59 µM]	/
COc1cc(OC)c2c(c1)OC(c1ccccc1)CC2=O (stereo unspecified)
    25%	-7%
Cc1cc2c(OCC(CNC(C)(C)C)OC(=O)c3ccccc3)cccc2[nH]1 (stereo unspecified)
    35µM*	-21%
O=C(Nc1ccc(C(=O)N2CCCCC2)cc1)c1ccccc1
    80%[activator]	32%[activator]
CCc1ccc(Oc2nccc(-c3c(-c4ccc(F)cc4)ncn3C3CCNCC3)n2)cc1
    ?	?
C[C@@]1(CO)[C@H](O)CC[C@@]2(C)[C@H]1CC[C@H]1C[C@@H]3C[C@@]12CC[C@]3(O)CO
    ?	?
CN[C@@H]1[C@@H](O)[C@@H](O[C@@H]2[C@@H](O)[C@H](O[C@H]3O[C@H](CN)[C@@H](O)[C@H](O)[C@H]3O)[C@@H](N)C[C@H]2NC(=O)C(O)CN)OC[C@]1(C)O (stereo partly specified)
    8%	1%
Fc1ccc(Nc2nccc(-c3c(-c4ccc(C(F)(F)F)cc4)nn4ncccc34)n2)cc1F
    -5%	6%
CC(C)[C@H](NC(=O)CNC(=O)OC(C)(C)C)C(=O)N[C@H](C=O)C(C)C
    ?	-2%
COC(=O)c1ccccc1C[C@]1(C(=O)OC)C=C[C@H](C)[C@@H](c2ccccc2)N1C(=O)C(F)(F)F
    -13%	4%
Nc1nc2c(ncn2[C@@H]2O[C@H](COP(=O)(O)OP(=O)(O)O)[C@@H](O)[C@H]2O)c(=O)[nH]1
    15%	22%

Profiles, looked up by structure. Order of values: MARV entry inh | LASV entry inh
`COc1cc(OC)c2c(c1)OC(c1ccccc1)CC2=O` (stereo unspecified) is listed as 25% | -7%
`C[C@@]1(CO)[C@H](O)CC[C@@]2(C)[C@H]1CC[C@H]1C[C@@H]3C[C@@]12CC[C@]3(O)CO` is listed as ? | ?
`Cc1cc2c(OCC(CNC(C)(C)C)OC(=O)c3ccccc3)cccc2[nH]1` (stereo unspecified) is listed as 35µM* | -21%
`Cc1c(C(=O)N2CC3CCC2C3)sc2ncnc(NCc3ccco3)c12` (stereo unspecified) is listed as 10% | -7%
`COc1ccc2c(c1)C(=O)[C@@H](OC(=O)N[C@H](C)C1CCCCC1)[C@H](c1ccc(OC)c(Br)c1)O2` is listed as -1% | 6%

Some values from above:
In MARV entry inh, `O=C(Nc1ccc(C(=O)N2CCCCC2)cc1)c1ccccc1` reads 80%[activator]
In MARV entry inh, `CN[C@@H]1[C@@H](O)[C@@H](O[C@@H]2[C@@H](O)[C@H](O[C@H]3O[C@H](CN)[C@@H](O)[C@H](O)[C@H]3O)[C@@H](N)C[C@H]2NC(=O)C(O)CN)OC[C@]1(C)O` (stereo partly specified) reads 8%
In MARV entry inh, `Fc1ccc(Nc2nccc(-c3c(-c4ccc(C(F)(F)F)cc4)nn4ncccc34)n2)cc1F` reads -5%

Going on with the list.
Values run as follows: MARV entry inh	LASV entry inh
COC1=CC(=O)C=C(OC)C1=O
    7.1µM*	10µM*
COC(=O)C1=C(C)N(CC2CC2)C(=O)N[C@H]1CCc1ccccc1
    -10%	-7%
COCC1CCCN(Cc2ccc3c(c2)CN(C(=O)c2ccc(-c4ccc(C)o4)cc2)CCO3)C1 (stereo unspecified)
    ?	-1%
c1ccc2sc(C3(N4CCCCC4)CCCCC3)cc2c1
    11µM*	?
CC(C)C[C@H]1COc2cc(NC3CC3)ccc2S(=O)(=O)N1
    13%	-10%
CN(C)c1ccnc(-c2ccccc2C(F)(F)F)n1
    1%	-13%
O=C(/C=C/c1ccc(O)cc1)c1ccc(O)cc1O
    22%&4%	9%&13%
C[C@H]1CCC[C@@]2(C)CCCC[C@]12O
    -16%	-4%
CC[C@]1(O)C[C@@H]2CN(CCc3c([nH]c4ccccc34)[C@](C(=O)OC)(c3cc4c(cc3OC)N(C)[C@H]3[C@](O)(C(=O)OC)[C@@H](C(=O)OC)[C@@]5(CC)C=CCN6CC[C@@]43[C@@H]65)C2)C1
    ?	?
CC(=O)Oc1cccc(C(=O)O)c1OC(C)=O
    16%	-2%
CC(C)C[C@@H]1COc2cccc(NCCO)c2S(=O)(=O)N1
    -7%	49%[activator]
CC(/C=C/C(=O)NO)=C\[C@@H](C)C(=O)c1ccc(N(C)C)cc1
    -24%&-25%	?
CC(O)(C(=O)Nc1ccc(S(=O)(=O)c2ccccc2)cc1)C(F)(F)F (stereo unspecified)
    -25%&7%	-19%&-13%
C[C@@H]1CC[C@H]2C(=O)O[C@H](COc3ccc(C(C)(C)C)cc3)CN2[C@@H]1c1ccc(Br)cc1
    ?	/
CO/N=C(/C(=O)N[C@@H]1C(=O)N2C(C(=O)OCOC(=O)C(C)(C)C)=C(C)CS[C@H]12)c1csc(N)n1
    -2%	-16%
COc1cc(C[C@H]2C(=O)OC[C@@H]2Cc2ccc(OC)c(OC)c2)ccc1O
    -3%	1%
CC(C)C[C@H](NC(=O)[C@H](Cc1ccccc1)NC(=O)CNC(=O)[C@@H](COC(C)(C)C)NC(=O)[C@@H](N)Cc1ccc(O)cc1)C(=O)N[C@H](C(=O)O)[C@@H](C)OC(C)(C)C
    14%	-14%
Cc1ccccc1Nc1oc(-c2ccccc2)nc1-c1ccc(C(F)(F)F)cc1
    17%[8.59 µM]	?
C=C1C(=O)OC2CC1C(OC(C)=O)CC(C)=CCCC(C)=CCC[C@@]2(C)O (stereo partly specified)
    16µM*	11µM*
C#CCN1C(C)=CC(=O)[C@@H](O)[C@H]1c1ccccc1Br
    12%	11%
Fc1ccc(-c2nn3ncccc3c2-c2ccnc(Nc3ccc4c(c3)OCCO4)n2)cc1
    0.89µM*	?
O=C1N(Cc2ccc(F)cc2)c2ccccc2[C@@]12O[C@H](COc1ccccc1)CC1CCCC12 (stereo partly specified)
    106%[activator][8.59 µM]	41%[activator][8.59 µM]
CCCCN1C[C@H](c2ccc(Br)cc2)[C@@H](CC(=O)Nc2ccc(Br)cc2)C1=O
    ?	-23%
CCCCCC1C(=O)C[C@@H]2CCN3C(=O)CCC[C@H]1[C@H]23 (stereo partly specified)
    5%	1%
COc1c(C(N)=O)cc(-c2ccc(Cl)cc2)cc1-c1ccc(S(N)(=O)=O)cc1
    -50%	?
O=c1cc(-c2ccc(O)c(O)c2)oc2cc(OC3OC(CO)C(O)C(O)C3O)cc(O)c12 (stereo unspecified)
    -41%	32%[activator]
O=C(O)CC/C=C\CC[C@H]1[C@@H](N2CCCCC2)[C@@H](O)C[C@@H]1OCc1ccc(-c2ccccc2)cc1
    8%	-1%
CC1CCC2(OC1)OC1CC3C4CCC5CC(O)CCC5(C)C4=CCC3(C)C1C2C (stereo unspecified)
    -19%	6%
[O-][n+]1ccccc1SSc1cccc[n+]1[O-]
    6.3µM*	4µM*
NS(=O)(=O)c1ccc(N=Nc2c(O)[nH]c3ccc(C(=O)NCc4ccncc4)cc23)cc1
    26%	/
O=C(Nc1cccc(C(=O)N2CCOCC2)c1)C1CCCC1
    15%	-19%
Cc1csc(C(C)N(C)C(=O)c2cc(NC(=O)C3CCC3)c3c(c2)nc(-c2ccncc2)n3C)n1 (stereo unspecified)
    3%	-4%
c1ccc(CNc2oc(-c3ccccc3)nc2-c2ccccc2)cc1
    2%	8%
C[C@@H]1C(c2cccc(Cl)c2)=NN(c2ccccc2)[C@H]1C(=O)N1CCOC1=O
    ?	-20%
C=CCN1c2ccccc2[C@]23C[C@@H](C(=O)OC)N(C(=O)Nc4ccc(C(F)(F)F)cc4)C2=NC(C(=O)OC)=C(C(=O)OC)[C@H]13
    17%[8.59 µM]	7%[8.59 µM]
N#C/C(=C(/N)Sc1ccc(N)cc1)c1ccccc1C(F)(F)F
    6%	-13%
Cc1cnc(-n2ncc(C(=O)N(C)CC3CCCN(C)C3)c2C2CC2)nc1-c1cccs1 (stereo unspecified)
    ?	1%
O=S1(=O)CC(N2CC=CC2)CN1Cc1ccccc1 (stereo unspecified)
    23%	8%
NCCNS(=O)(=O)c1cccc2c(Cl)cccc12
    10µM*	?
COc1cc(-c2cccc(Cl)c2)cc2c1OCCN(C(=O)CCn1ccc(C)n1)C2
    ?	-22%
COCCN(C)C(=O)c1cnn(-c2ncc3c(n2)-c2ccccc2CCC3)c1C1CC1
    13%	11%
CCC(=O)Nc1ccc(C)c(-c2ccc(C(=O)NCC3CC3)cc2)c1
    36%[activator]	-18%
CCc1ccc(S(=O)(=O)O)cc1
    -3%	-8%
CC1(OC(=O)C2CCCC2)C(=O)C=C2C=C3CCCN3C=C2C1=O (stereo unspecified)
    -15%[8.59 µM]	-13%[8.59 µM]
CCCCCCCC[N+](C)(C)CCCCCCCC
    16µM*	?
O=C(NS(=O)(=O)c1ccc(F)cc1)O[C@@H]1C(=O)c2cc(Br)ccc2O[C@H]1c1ccc2c(c1)OCO2
    15%	52%[activator]
O=C1c2ccccc2C(=O)C1c1ccc(Cl)cc1
    -4%	?
CC(C)(C)NC[C@H](O)COc1cccc2[nH]c(=O)[nH]c12
    6%	-7%
COc1cccc([C@@H]2Oc3ccc(OC)cc3C(=O)[C@@H]2O)c1
    -11%[8.59 µM]	92%[activator][8.59 µM]
C[N+](C)(C)CCOP(=O)(O)OP(=O)([O-])OC[C@H]1O[C@@H](n2ccc(N)nc2=O)[C@H](O)[C@@H]1O
    11%&23%	-15%&-8%
Cc1ccc(CNc2ncnc3sc(C(=O)N4CCCC(C(N)=O)C4)c(C)c23)o1 (stereo unspecified)
    -20%	-6%
O=C1CCN(Cc2cccn2-c2ccccn2)CCN1Cc1ccccc1C(F)(F)F
    -20%	-10%
CCCn1c(C)c(C(=O)c2cccc3ccccc23)c2ccccc21
    -3%	8%
COc1ccc2c(c1)O[C@@H](c1ccc3c(c1)OCO3)[C@H](OC(=O)Nc1ccc(OC(F)F)cc1)C2=O
    -2%	-13%
COC(=O)C1=C(C(=O)OC)[C@@H]2N(Cc3ccccc3)c3ccccc3[C@@]23C[C@@H](C(=O)OC)N(C(=O)NCCBr)C3=N1
    8%[8.59 µM]	-14%[8.59 µM]
Cc1cccc(CNC(=O)c2cnn(-c3nccc(-c4cc5ccccc5o4)n3)c2C2CC2)n1
    -29%	?
CC(C)c1cc(C(=O)N2CCOc3ccc(CN4CCC(Oc5cccnc5)CC4)cc3C2)n[nH]1
    26%	-16%
CC1CN(CC(=O)NCCc2ccncc2)Cc2ccccc2O1 (stereo unspecified)
    -3%	2%
COC(=O)CC=C[C@@H](C)[C@@H](C=NOC[C@@H](O)COCc1ccco1)NS(=O)(=O)c1ccc(C)cc1
    21%[8.59 µM]	-16%[8.59 µM]
CCOC(=O)Oc1c(OC)cc(C(=O)O[C@@H]2C[C@@H]3CN4CCc5c([nH]c6cc(OC)ccc56)[C@H]4C[C@@H]3[C@H](C(=O)OC)[C@H]2OC)cc1OC
    9%[17.8 µM]	?

(cont.)
Values run as follows: MARV entry inh	LASV entry inh
CC(C1OC(C)(C)C(O)C1O)C1CC[C@@]2(C)C3=CCC4C(C)(C)C(=O)CC[C@]4(C)C3CC[C@@]12C (stereo partly specified)
    ?	?
COC[C@]12CN(C=O)C3C4C(OC)C1[C@@]3(C1CC3(O)C(OC)C(O)C4(OC(C)=O)C1C3OC(=O)c1ccccc1)[C@@H](OC)CC2O (stereo partly specified)
    2%	-7%
CC(C)C(NS(=O)(=O)c1ccc(-c2ccc(Br)cc2)cc1)C(=O)O (stereo unspecified)
    8%	-2%
OCC1O[C@@H](OC2C(O)C(CO)O[C@@]2(CO)O[C@@H]2OC(CO)C(O)C(O)C2O)C(O)C(O)C1O (stereo partly specified)
    1%	7%
COCc1c(C(=O)N2CCCC(C)C2)cnn1-c1nccc(-c2cc(C)sc2C)n1 (stereo unspecified)
    -8%	-3%
CC(=O)NCCNc1ncncc1-c1ccccc1C(F)(F)F
    3%	-6%
COC(=O)CC=C1c2ccccc2[C@@H](O)[C@@H]1C
    52%[activator][8.59 µM]	-17%[8.59 µM]
COc1ccc(/C=C/C2=C[C@]3(C)C[C@]2(C)[C@H](c2ccc(OC)cc2)CC3=O)cc1
    11%	8%
C=C1c2ccccc2O[C@H](C(=O)OCC)[C@@H]1CC(C)(C)c1ccccc1
    -26%	?
C=C(C(C)=O)C(O)c1cccc(Br)c1 (stereo unspecified)
    -11%	-2%
